AID504770: growth inhibition of E. coli YBA685, primary screen, V. cholerae RctB inhibitors; E. coli YBA685 rctB-dependent plasmid, OD600 growth, 3 h; active compounds read low; z-score (no concentration beside the values); hit rate 0.27% among 130,000; AID 504770, 2011;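 active = z-score under -2 on both plates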;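 also: wells of about 30 µL received 100 nL stock; score is relative to mean and SD of the test wells; the first replicate is given; strong numbers were not always called active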
Ba CapD inh: Bacillus anthracis CapD inhibitors, primary screen, biochemical, fluorescence intensity; CapD gamma-glutamyltranspeptidase (Bacillus anthracis Ames Ancestor); purified CapD enzyme, fluorescence intensity read-out; active compounds read low; some hits fall short of the stated cut; z-score (no concentration beside the values); hit rate 0.23% among 140,000;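 active = z-score under -4 in either of two replicates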;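 also: stock transfer was 100 nL into about 40 µL; score is relative to mean and spread of the plate; one replicate is shown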
Starred values were filed as active, the others as inactive; / = not tested or not shown.

SMILES	AID504770	Ba CapD inh
COCCN1C(=O)C(=O)/C(=C(/O)c2ccccc2)C1c1cc(OC)ccc1OC (stereo not given)	/	-0.675
COc1ccc(N2C(=O)/C(=C\c3ccco3)N=C2SCC(N)=O)cc1Cl	0.7	/
O=S1(=O)N=CNc2ccc(S(=O)(=O)NCc3ccccc3)cc21	-0.9	0.555
O=c1[nH]c(Nc2ccc3c(c2)OCO3)nnc1Cc1ccc(F)cc1	-0.35	/
Oc1ccc(Br)cc1C1CC(c2ccccc2)=NC(c2ccco2)N1 (stereo not given)	0.2	/
COC(=O)NC(=O)c1ccc(Cl)cc1	-0.15	0.105
Nc1ccc(C(=O)NCC2CCCN3CCCCC23)cc1 (stereo not given)	-0.95	0.455
Cc1cc(C)n2nc(C(=O)Nc3cccnc3)cc2n1	-0.9	16.2
CSc1nc(Sc2cccc(Cl)c2)c2cnn(-c3ccccc3)c2n1	/	-0.39
Brc1ccc(CSc2nnc(-c3ccc4c(c3)OCO4)o2)cc1	-0.4	/
COc1cc(C(=O)Nc2ccc3oc(-c4ccc(C)cc4)nc3c2)cc(OC)c1OC	/	3.33
Cc1cccc(C)c1N1CCN(S(=O)(=O)c2cccc(Cl)c2Cl)CC1	/	0.77
c1ccc2oc(C3CCNCC3)nc2c1	1.65	/
NS(=O)(=O)c1cc([N+](=O)[O-])c(N2CCN(C(=O)OCCN3CCN(Cc4ccc(OC(F)(F)F)cc4)CC3)CC2)s1	/	-1.01
CCN(CC)C(=O)CSc1nc(N)c(C(=O)Nc2ccc(OC)cc2)s1	-0.3	-2.94
NC(=O)C1CCCN1C(=O)CCC(=O)O (stereo not given)	0	/
CCCCC1(C)OC(=O)C(=Cc2ccc(F)cc2)C(=O)O1 (stereo not given)	0.15	0.115
c1ccc(-c2noc(-c3csnn3)n2)cc1	/	-0.56
CNc1nnc(Cl)c2ccccc12	-1.2	8.8
COC(=O)CSc1sc(=O)sc1SCC#N	/	-0.3
CC(C)(C)OC(=O)N(CCOC(=O)NC1CCN(Cc2ccc3ccccc3c2)C1)Cc1cc2ccccc2c2ccccc12 (stereo not given)	/	1.27
c1cc(-c2nn[nH]n2)cs1	-0.95	-0.11
COC(=O)c1sc2ccccc2c1NC(=O)COc1ccc(Cl)cc1	-0.45	9.31
O=C(COc1ccc(F)cc1)NCCCn1ccnc1	1.2	/
Cc1csc(NC(=O)Cc2nn(C)c(=O)c3ccccc23)n1	/	-0.695

A run of entries from further up, as a working copy:
SMILES	AID504770	Ba CapD inh
COCCN1C(=O)C(=O)/C(=C(/O)c2ccccc2)C1c1cc(OC)ccc1OC (stereo not given)	/	-0.675
COc1ccc(N2C(=O)/C(=C\c3ccco3)N=C2SCC(N)=O)cc1Cl	0.7	/
O=S1(=O)N=CNc2ccc(S(=O)(=O)NCc3ccccc3)cc21	-0.9	0.555
O=c1[nH]c(Nc2ccc3c(c2)OCO3)nnc1Cc1ccc(F)cc1	-0.35	/
Oc1ccc(Br)cc1C1CC(c2ccccc2)=NC(c2ccco2)N1 (stereo not given)	0.2	/
COC(=O)NC(=O)c1ccc(Cl)cc1	-0.15	0.105
Nc1ccc(C(=O)NCC2CCCN3CCCCC23)cc1 (stereo not given)	-0.95	0.455
Cc1cc(C)n2nc(C(=O)Nc3cccnc3)cc2n1	-0.9	16.2
CSc1nc(Sc2cccc(Cl)c2)c2cnn(-c3ccccc3)c2n1	/	-0.39
Brc1ccc(CSc2nnc(-c3ccc4c(c3)OCO4)o2)cc1	-0.4	/
COc1cc(C(=O)Nc2ccc3oc(-c4ccc(C)cc4)nc3c2)cc(OC)c1OC	/	3.33
Cc1cccc(C)c1N1CCN(S(=O)(=O)c2cccc(Cl)c2Cl)CC1	/	0.77
c1ccc2oc(C3CCNCC3)nc2c1	1.65	/
NS(=O)(=O)c1cc([N+](=O)[O-])c(N2CCN(C(=O)OCCN3CCN(Cc4ccc(OC(F)(F)F)cc4)CC3)CC2)s1	/	-1.01
CCN(CC)C(=O)CSc1nc(N)c(C(=O)Nc2ccc(OC)cc2)s1	-0.3	-2.94
NC(=O)C1CCCN1C(=O)CCC(=O)O (stereo not given)	0	/

Next section.
SMILES	AID504770	Ba CapD inh
COc1c(Cl)cnn(-c2cccc(C)c2)c1=O	1.7	-0.26
CSc1ncc(C(N)=O)c(N)n1	/	7.6
CC(C#N)(c1ccccc1)c1ccccc1	-0.25	/
Cc1cc(/C=N/NC(=O)c2cccnc2)c(C)n1CC(C)C	-0.1	/
COc1cc(Br)c(/C=N/NC(=O)CS(=O)(=O)c2ccc(C(F)(F)F)cn2)cc1OC	/	-1
O=C(c1cccc2cc[nH]c12)N1CCN(C(c2ccccc2)c2ccccc2)CC1	/	0.04
COc1ccc(NC(=S)N2CCC(N(C)CCN3CCOCC3)CC2)cc1Cl	-0.35	-0.525
Cc1ccc(C(=O)Nc2ccc3c(c2)n(C)c(=O)n3C)cc1	-0.35	0.46
O=C1CCCN1CCCn1c(-c2ccco2)csc1=Nc1ccc(F)cc1	-0.6	/
Cc1cc(C)c(CSC2=NCCN2)c(C)c1CSC1=NCCN1	/	-0.545
CCOC(=O)C1CCN(CC(O)COCc2ccc(Cl)cc2)CC1 (stereo not given)	-0.15	-0.335
COc1c(Cl)cc(Br)c(OC)c1C(N)=O	/	0.17
COc1cccc(C(=O)OCC(=O)c2ccccc2)c1OC	-0.9	0.2
C=C(C)C1Cc2nc(N)nc(C)c2C1 (stereo not given)	0.3	1.23
CN1C(=O)C(=Cc2ccc(-c3cccc(C(=O)O)c3)o2)C(=O)N(C)C1=S	-1.65	-0.73
O=C(NCCCN1CCCC1=O)C1CCN(c2ccc(C(F)(F)F)cn2)CC1	/	7.97
CC(=O)N1CCC(N(C(=O)c2cccs2)c2ccc3c(c2)CCN3C(C)=O)CC1	/	-0.305
CC1(C)CN(c2ccc(Br)cc2Br)C1=O	1.9	-0.43
COc1ccc(Cc2noc(-c3cc(-c4ccncc4)nc4ccccc34)n2)cc1	/	0.505
COc1cccc(CCNC(=O)OCCc2cccc(OC)c2)c1	/	0.39
COc1ccc(-c2c(C(F)(F)F)oc3cc(OC(=O)c4cccnc4)ccc3c2=O)cc1OC	/	0.275
O=C1C(=O)N(Cc2ccc(Cl)cc2Cl)C(=O)N1Cc1ccc(F)cc1	/	-0.035
O=C(/C=C/c1cccs1)N1CCCN(C(=O)/C=C/c2cccs2)CC1	0.45	-2.57
Cc1[nH]nc2c1C(c1ccccc1F)N(C)C2=O (stereo not given)	0.3	/
COc1cc2c(cc1NC(=O)Cc1ccc([N+](=O)[O-])cc1)oc1ccccc12	/	-0.09

Next part:
SMILES	AID504770	Ba CapD inh
O=S(=O)(c1cccc(C(F)(F)F)c1)c1cnc(-c2ccccn2)nc1-c1cccnc1	/	0.35
CCN1C(N)=C(C#N)C(c2ccc3[nH]c4ccccc4c3c2)c2nc(C)oc21 (stereo not given)	1.4	5.9
COc1ccc(/C=C/C(=O)C(C(N)=O)=C2SCS2)cc1	0.1	/
Cc1cc(I)ccc1NC(=O)CC(C)C	0.3	0.21
Fc1ccc(-c2csc(-c3cccs3)n2)cc1	0.1	5.46
CC(C)OC(=O)c1cccc(C(=O)Oc2ccccc2)n1	-0.3	0.125
COc1ccc(NC(=O)C(C)NC(=O)c2ccccc2NC(=O)c2ccco2)cc1 (stereo not given)	-0.1	7.85
Cc1c(S(=O)(=O)NCCc2ccccn2)sc2ccc(Cl)cc12	1.35	-0.545
O=C(C1CC2CCCN2C12C(=O)Nc1ccccc12)N1CCN(c2ccccc2)CC1 (stereo not given)	-0.6	-0.43
C=CCSc1n[nH]c(=O)[nH]c1=O	-0.15	4.6
CC(=O)Nc1ccc(-c2ccccc2)cc1	0.1	0.06
CC(=O)OC[C@H]1O[C@@H](Oc2ccccc2)[C@H](OC(C)=O)[C@@H](OC(C)=O)[C@@H]1OC(C)=O	/	0.79
COc1ccc(C2Nc3ccccc3C(=O)N2c2ccccc2)cc1 (stereo not given)	-1.3	-0.03
Cc1ccccc1OCC(O)Cn1c(N2CCN(C)CC2)nc2c1c(=O)n(C)c(=O)n2C (stereo not given)	/	-0.915
COc1ccc(N2CCN(C(=O)CSc3nc4[nH]ncc4c(=O)n3-c3ccc(F)c(Cl)c3)CC2)cc1	/	-0.085
COC(=O)C1=C(C)NC2=C(C(=O)CC(c3ccc(OC)c(OC)c3)C2)C1c1cc(OC)c(OC)cc1OC (stereo not given)	/	0.24
O=C(O)c1ccc(CNCc2ccccc2)s1	-0.2	-0.315
Cc1[nH]n(-c2ccccc2)c(=O)c1C=Nc1cc([N+](=O)[O-])cc([N+](=O)[O-])c1	/	-0.3
Nc1cc(-c2cccs2)nn1-c1ccc(F)cc1	-0.2	0.89
COc1ccc(/C=C/C(=O)N2CC(=O)Nc3ccccc32)cc1S(=O)(=O)N1CCOCC1	-0.9	/
CP(=O)(O)C(c1ccccc1)C(F)(F)C(F)(F)C(F)(F)F (stereo not given)	-0.65	0.115
Cn1cc(/C(Cc2ccccc2)=N\O)c2ccccc21	1.05	0.345
CCOc1ccc(N=C2SCCCN2C(=O)c2ccc(C#N)cc2)cc1	0.05	/
CCN(CC)S(=O)(=O)c1ccc2c(c1)nc(CCC(=O)Nc1ccc(C(C)C)cc1)n2CC	0	/
C/C(N)=C(/C#N)C(=O)CSc1n[nH]c(N)n1	-1.35	/

Next part.
SMILES	AID504770	Ba CapD inh
CCCCCCC(=O)Nc1cccc(C(=O)N/N=C/c2c(OC)ccc3ccccc23)c1	/	2.38
O=C(O)CCC(=O)NCc1ccco1	-0.55	0.59
CCN(CC)S(=O)(=O)c1cc(C(=O)N2CCN(Cc3ccc4c(c3)OCO4)CC2)ccc1Cl	1	/
CC(C)C(=O)NCc1nc(-c2ccccc2)no1	0.7	0.725
O=C1Nc2ccccc2S/C1=C\c1ccc2c(c1)OCO2	0.55	0.09
S=c1ccc(-c2ccc(Cl)cc2)nn1-c1ccccc1	1	3.39
O=C(CCNc1ccccc1C(=O)O)c1ccccc1	-0.65	15.8
CC(=O)N1CCc2c(sc(NC(=O)C(C)C)c2C(N)=O)C1	-1.45	-0.43
O=C(Cn1ncn2cccc2c1=O)N1CCc2ccccc2C1	-4.1	0.365
CCCC1=NN(c2ccccc2)C(=O)/C1=C/c1ccc(Cl)cc1	-0.4	-0.26
CC(=O)Nc1ccc(NCc2cccs2)cc1	-0.45	/
Cc1nc(-c2cnccc2C(F)(F)F)sc1C(=O)NNC(=O)c1csc(-c2cnccn2)n1	/	-1.09
CCN(CC(=O)Nc1ccc(C#N)cc1)C1CCCCC1	0.2	/
C=C(C)CSC1=C(C#N)C(c2sccc2C)CC(=O)N1 (stereo not given)	1.6	-0.385
O=C(NCCCn1ccnc1)c1ccncc1	0.7	-0.32
COc1ccc(-c2ccc(/C=C3/SC(N)=NC3=O)o2)c([N+](=O)[O-])c1	/	-0.995
Cc1ccc(C(=O)N2CCN(c3cccc4[nH]ccc34)CC2)cc1	-0.35	1.28
CCOC(=O)CC1C(=O)NCCN1S(=O)(=O)c1cccc(C(F)(F)F)c1 (stereo not given)	/	0.39
O=C(O)CC(Sc1ccc(Cl)cc1)C(=O)O (stereo not given)	/	0.435
N#CC1(NC(=O)CSc2nnc3ccccn23)CCCCC1	-0.25	/
Fc1cc(Br)ccc1N=Cc1ccc2ncccc2c1	-0.1	-0.53
COc1ccc(N=Cc2cc3ccc(C)cc3nc2Cl)cc1	0.1	-0.555
COc1ccc(Nc2cc(C(=O)O)c3ccccc3n2)cc1	0.7	-2.04
O=C(NC1CCS(=O)(=O)C1)c1ccco1 (stereo not given)	0.15	0.07
COc1ccc(CCNC2=CC(=O)CC(C)(C)C2)cc1OC	-0.05	0

The list goes on:
SMILES	AID504770	Ba CapD inh
O=C(Cn1c(=O)oc2ccccc21)NC(=O)NC1CCCC1	1.1	/
Nc1c2c3c(sc2nc(=O)n1N)CCCC3	-0.4	2.96
O=c1[nH]c(=O)n(Cc2ccccc2)c2ncn(Cc3ccco3)c12	0.35	/
CCOC(=O)c1c(-c2cccs2)csc1N	/	-0.27
N#Cc1c(Oc2ccc3ccccc3c2)sc(C(=O)c2ccccc2)c1N	/	-0.36
O=C(O)c1nn2cccnc2c1Cl	1.6	/
O=C(O)CC1C(=O)NCCN1CC(c1ccccc1)c1ccccc1 (stereo not given)	-0.8	-1.02
O=C(O)c1[nH]nc2c1COc1ccccc1-2	0.1	/
N#CC1(c2ccccc2)CCc2c(sc3ncnc(N4CCCC4)c23)C1 (stereo not given)	-1	-0.17
CNS(=O)(=O)c1ccc2nc(N)sc2c1	-0.7	/
COCCNCc1nc(NCCOC)c2c(C)c(C)sc2n1	-0.15	/
COc1cc2c(cc1OC)C(COc1cccc(C(F)(F)F)c1)N(C(=O)c1ccco1)CC2 (stereo not given)	-0.3	5.99
Clc1ncc(CSCc2ccccc2)s1	-0.55	0.1
COC(=O)c1c(NC(=O)CN2CCC3(CC2)OCCO3)sc2c1CCCC2	-0.85	2.08
COC(=O)CNc1c(F)c(F)nc(F)c1F	-0.9	-0.155
CC1=C(C(=O)Nc2nccs2)C2(CCCCCC2)OC1=O	0.3	-0.98
NNC(=O)C(NC(=O)c1ccccc1)c1n[nH]c(=O)c2ccccc12 (stereo not given)	0.3	/
O=C(Cc1c(F)c(F)c(F)c(F)c1F)OC12CC3CC(C1)C(=O)C(C3)C2	-0.65	/
OCCC1CCCCN1CC(O)c1ccccc1 (stereo not given)	-2.2	/
Cc1ccc(C)c(S(=O)(=O)Nc2ccc3oc4c(c3c2)C(=O)CCC4)c1	/	-0.115
O=C(Nc1cccc2ccccc12)OCCn1ncc2ccccc2c1=O	-0.7	0.345
CCN(CC)c1ncnc2sc(C(=O)NCc3ccccc3OC)c(C)c12	/	-0.055
CCOC(=O)C1CCN(Cn2c(=S)n(-c3ccc(OC)cc3)c3ccccc32)CC1	0	/
CC1CCN(S(=O)(=O)c2ccc3[nH]c4c(c3c2)CCCC4)CC1	0.6	-0.23
Nc1nc(CSc2nnc(C3CC3)n2C2CC2)nc(Nc2ccccc2)n1	-0.45	/
O=C(Nc1ccccc1)C(C(F)(F)F)C(F)(F)F	-1.35	-3.58*

Assay outcomes deposited in PubChem BioAssay by ICCB-Longwood Screening Facility, Harvard Medical School.

Some of the compounds tested; count on the stated rates, not on these rows.
